# VDR inhibitor: inhibitors of human vitamin D receptor; P11473; VDR-SRC2-3 peptide fluorescence polarization, 2 h; Potency, µM, for inactives: max response, negative = inhibition, actives largely listed as inhibitors; 0.93% of 400,000 active; AID 504847; active means well fitted inhibition curve with a large enough effect; inconclusive means small, poorly fitted or top-dose-only effect, or another doubt; inactive means no such curve, though single readings can be large or run the other way; further: series mostly up to about 120 µM
# Target sequence (P11473 whole entry, looked up): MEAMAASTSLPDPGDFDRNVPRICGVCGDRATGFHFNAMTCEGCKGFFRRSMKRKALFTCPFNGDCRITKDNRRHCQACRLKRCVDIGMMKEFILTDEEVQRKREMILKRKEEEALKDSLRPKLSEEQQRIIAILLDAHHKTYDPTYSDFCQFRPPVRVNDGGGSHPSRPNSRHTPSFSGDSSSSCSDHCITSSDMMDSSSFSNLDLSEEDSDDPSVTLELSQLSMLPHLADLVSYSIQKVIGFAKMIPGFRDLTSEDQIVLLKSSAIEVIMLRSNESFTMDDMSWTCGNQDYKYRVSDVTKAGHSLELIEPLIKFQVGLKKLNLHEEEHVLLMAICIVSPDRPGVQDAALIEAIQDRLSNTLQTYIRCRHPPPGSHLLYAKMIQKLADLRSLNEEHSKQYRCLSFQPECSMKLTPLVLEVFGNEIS
#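 VDR–SRC2-3 interaction, FP format. Cmpds 23 nl via pintool, brief spin, 2 h ambient incubation.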
# * = called active by the depositor; ? = inconclusive; & = joins results of further samples. On the % scale 0 is the no-effect control and ±100 the full control effect; potency means the concentration at half of the fitted maximal effect.
mol	VDR inhibitor
CCc1cc(=O)oc2cc(OCC(=O)NCCCN3CCOCC3)c(Cl)cc12	-25.8%
CCCC(C(=O)NC(C)(C)C)N(CC1CCCO1)C(=O)CNS(=O)(=O)c1ccc(F)cc1 (centres undefined)	-12.3%
Cc1ccccc1CS(=O)(=O)c1ccc(C(=O)N2CCC(C)CC2)cc1[N+](=O)[O-]	-3.9%
NS(=O)(=O)c1ccc(NC(=O)CSc2cn[nH]n2)cc1	2.0%
O=CNC1CCCc2c1[nH]c1ccc(Cl)cc21 (centres undefined)	-2.1%
Cc1ccc(OCCNC(=O)c2ccccc2OCc2c(C)noc2C)cc1	-16.5%
CC(C)Oc1ccc(-c2nc3c(C#N)c[nH]n3c2NC2CCCCC2)cc1	8.4%
COCCOC(=O)C1=C(C)NC2=C(C(=O)CCC2)C1c1ccc2c(c1)OCO2 (centres undefined)	-10.3%
CC(SCc1ccccc1)C(=O)Nc1ccccc1 (centres undefined)	4.3%
COc1ccc(C(=O)N2CCN(CCNC(=O)C(=O)Nc3ccc(F)cc3)CC2)cc1	13.7%
CCN1CCN(C(c2cccs2)C(C)NS(=O)(=O)c2ccc(Br)cc2)CC1 (centres undefined)	3.5%
CCOc1cccc(C(=O)Nc2cccnc2)c1	0.9%
CCc1ccc2occ(CC(=O)Nc3ccc(OC)c(Cl)c3)c2c1	9.0%
Cc1ccc2c(C)c(C(=O)NCC(C)(C)N3CCOCC3)oc2c1C	-8.6%
COc1ccc(-c2oc(=O)c3cc(OC)c(OC)cc3c2C#CCCCO)cc1	1.2%
COCCn1c(SCC(=O)N2CCCCCC2)nc2c([nH]c3ccccc32)c1=O	-14.6%
Cc1ccc(SCC(=O)OCC(=O)N(CCC#N)c2ccccc2)cc1	-8.9%
CC1=C(C)SC(=C(C#N)c2nnc(N3CCOCC3)n2-c2ccccc2)S1	-10.1%
Cc1cc(SCC(=O)Nc2ccc(C(F)(F)F)cc2)nc(=O)[nH]1	0.5%
Cc1ccc(NC(=O)C2CC(=O)n3ncnc3N2)cc1C (centres undefined)	-10.5%
O=C1C2C3C=CC(C4CC34)C2C(=O)N1/N=C/c1ccc(-c2cccc([N+](=O)[O-])c2)o1 (centres undefined)	-8.1%
COc1ccc(-c2cc3nc(C)c(CCC(=O)Nc4cccc(C(F)(F)F)c4)c(C)n3n2)c(OC)c1	-16.0%
CC1CCN(S(=O)(=O)c2ccc3c(c2)N(CC(=O)NCCCN2CCCC(C)C2)C(=O)CS3)CC1 (centres undefined)	-0.9%&15.8%
CCCC1=C(C(=O)OCC)C(c2cc(Cl)cc(OC)c2OCc2ccccc2)NC(=O)N1 (centres undefined)	2.5%
O=C(c1ccco1)N1CCN(C(=O)c2oc(=O)c3ccccc3c2-c2ccccc2)CC1	-17.6%
O=C(Nc1nc2c(s1)C(=O)CCC2)c1ccccc1	25.0%
CCC(CO)NC(=O)c1ccccc1C(F)(F)F (centres undefined)	-4.5%
COc1ccc(C=O)cc1OC(=O)C1(C)Cc2ccccc2C(=O)O1 (centres undefined)	7.0%
CCN1CCN(CCCNC(=O)Cn2cc3c(n2)CCCC3)CC1	-6.3%
COc1c2c(cc3oc(CO[C@@H]4O[C@H](CO)[C@@H](O)[C@H](O)[C@H]4O)cc(=O)c13)O[C@H](C(C)(C)O)C2	-6.8%
Cc1ccc(-c2nnc(COC(=O)c3ccco3)o2)cc1	18.9%
Cc1ccc(NC(=O)C2C3C=CC4(O3)C2C(=O)N(CCCN2CCCCC2)C4C(=O)NC2CCCCC2)cc1C (centres undefined)	3.8%
O=C(c1cccc(F)c1)N1CCN(C(=O)C2CC2)CC1	7.4%
COc1ccc(CNC(=O)CCC2N=C3c4ccccc4N=C(SCc4cccc(F)c4)N3C2=O)cc1 (centres undefined)	11.5%
C=CCOC(=O)C1=C[C@H](c2coc3ccccc3c2=O)C[C@H](OCCCCO)O1	-7.5%
CSc1nnc(C2CCN(CC(=O)Nc3ccccc3N3CCOCC3)CC2)n1C(C)C	-14.9%
COc1ccccc1C(=O)Nc1cc2cc(Br)ccc2oc1=O	3.2%
O=c1[nH]nc(-c2ccc(F)cc2)cc1Cc1ccccc1	2.2%
O=C(CSc1nnc2ccccn12)NNC(=O)c1cccc([N+](=O)[O-])c1	6.4%
Cc1cc(CCN2CCC(=O)NC2=S)ccc1OC(C)C	-3.0%
O=c1c2c(-c3ccccc3)csc2nc2n1CCC2	-7.4%
COc1cccc(C2NC(CCSC)(C(=O)O)C3C(=O)N(C(C)C)C(=O)C23)c1O (centres undefined)	-5.3%
Cc1cnc(C(=O)OCC(=O)NC(=O)NC(C)C)cn1	4.8%
Cc1ccc(-c2ccc(=O)n(CC(=O)Nc3cccc(C#N)c3)n2)cc1	1.4%
S=c1[nH]nc(-c2ccc3ccccc3n2)n1Cc1ccccc1	0.4%
CCC(CC)c1nnc(NC(=O)CCc2ccccc2OC)s1	2.6%
CCOc1ccc(Br)cc1/C=N/O	-3.1%
COc1ccccc1OC(C)C(=O)Nc1nc(-c2ccc(S(=O)(=O)N3CCOCC3)cc2)cs1 (centres undefined)	-25.0%
O=C(CC1C(=O)NCCN1Cc1cccc(Oc2ccccc2)c1)NCCc1ccncc1 (centres undefined)	?
O=C(c1ccco1)N1CCCN(Cc2nc(-c3cccs3)no2)CC1	-11.6%

# Continued.
mol	VDR inhibitor
CC(=C/c1ccc(C(C)C)cc1)/C=N/NC(=O)c1ccncc1	-15.9%
Cc1ccc(S(=O)(=O)N2CCC(=O)N(C(COCc3ccc(Cl)cc3)Cc3ccccc3)CC2)cc1 (centres undefined)	-18.3%
CCCCn1c(CN2CCN(C(=O)OCC)CC2)nc2c1c(=O)n(C)c(=O)n2C	-11.3%
Nc1ccc(S(=O)(=O)NNC(=O)C(=O)NNc2ccccn2)cc1	6.4%
CCOc1ccc(S(=O)(=O)Nc2cccc(-c3ccc(N4CCC(C)CC4)nn3)c2)cc1	4.1%
Cc1c(NC(=O)COC(=O)C(c2ccc(Cl)cc2)C(C)C)c(=O)n(-c2ccccc2)n1C (centres undefined)	14.2%
O=C(NC(=S)NCc1cccnc1)c1ccccc1F	-2.9%
CCNC(=O)/C(C#N)=C/c1c(N2CCN(C)CC2)nc2c(C)cccn2c1=O	-2.8%
CC(=O)c1c(C)[nH]c(C(=O)OCC(=O)NCCc2ccc(Cl)cc2)c1C	3.9%
COc1cc(/C=C2\SC(=S)N(CC(=O)Nc3cccnc3)C2=O)cc(OC)c1OC	-23.5%
Cc1ccc(S(=O)(=O)N2CCCCC2)cc1C(=O)NCc1ccncc1	-13.1%
CN1CCS/C1=C/C=C1\SC(=S)N(CC(=O)O)C1=O	-15.9%
CC1(C)S[C@@H]2[C@H](NC(=O)[C@H](N)c3ccccc3)C(=O)N2[C@H]1C(=O)OC1OC(=O)c2ccccc21 (some centres undefined)	-29.8%
CCOc1cc(C(=O)N/N=C(\C)Cc2ccc(OC)cc2)cc(OCC)c1OCC	-2.5%
Cc1ccc(N2CC(c3nnc(Cc4ccc(F)cc4)o3)CC2=O)cc1 (centres undefined)	4.5%
O=C1C2C(c3cccc(/C=C/c4ccccc4)c3)CC=CC2C(c2ccc(C(F)(F)F)cc2)N1Cc1ccccc1 (centres undefined)	-5.3%&-9.5%
C=C1C(c2ccc(C)cc2)=CCc2cc(C)cc(C)c21	4.1%&-26.2%
COc1ccc(NC2CCCN(C(=O)c3ccc(C)nc3)C2)cc1 (centres undefined)	-4.3%
Cc1nc2ccc(NC(=O)c3ccc([N+](=O)[O-])cc3)cc2s1	-24.4%
O=C(O)C1CCCCC1C(=O)NCCCN1CCCC1=O (centres undefined)	-4.9%
CCC(C)(C)n1nnnc1C(C(C)C)N1CCN(C(=O)c2ccco2)CC1 (centres undefined)	20.3%
CCOc1nc(SCCOc2ccc(Cl)cc2Cl)nc(N(C)C)n1	0.2%
C=CCn1c(SCC(=O)Nc2sccc2C(N)=O)nc2sc(C)c(C)c2c1=O	2.3%
COc1ccc(OCc2n[nH]c(=S)n2-c2ccc(C)cc2)cc1	-14.3%
CCOC(=O)c1c(-c2ccccc2)cn2c(C)cc(C)nc12	12.6%
O=C(OC(C(=O)NCc1ccccc1)c1ccccc1)c1ccco1 (centres undefined)	12.3%
CC(C)(C#N)c1cc(Cn2cncn2)cc(C(C)(C)C#N)c1	1.2%
CC(NC(=O)C1CCC(C(C)(C)C)CC1)C(c1ccccc1)N1CCOCC1 (centres undefined)	?
CN(Cc1ccccc1)c1nc(N)nc(Cl)c1C=O	-16.5%
Cc1cccc(NC(=O)CN(C)C(=O)C2CC2)c1C	-6.1%
CC(C)c1ccccc1NS(=O)(=O)N(C)C	4.0%
Nc1nnc(C(F)(F)F)s1	-17.8%
COCCN(C(=O)CCC(=O)Nc1cc(C)on1)C(C(=O)NC(C)(C)C)c1ccc(OC)cc1 (centres undefined)	0.6%
COc1ccc2oc(=O)c(-c3nnc(-c4ccc(C)cc4)o3)cc2c1	-16.2%
CC1CCC2(CC1)NC(=O)N(CC(=O)Nc1cccc(C#N)c1)C2=O (centres undefined)	-9.7%
CCCn1c(N)c(C(=O)COC(=O)CCNS(=O)(=O)c2ccccc2F)c(=O)[nH]c1=O	-1.2%
COc1ccc(CN(C(=O)c2cc3ccccc3oc2=O)C2CCS(=O)(=O)C2)cc1 (centres undefined)	4.4%&-5.6%
O=C(CN(c1ccc(Cl)c(Cl)c1)S(=O)(=O)c1ccccc1)N1CCc2ccccc2C1	14.6%
C/C(=N\O)c1ccc2c(c1)OCCO2	-19.0%
COCCNC(=O)COC(=O)c1ccc(OCC(=O)Nc2ccccc2OC)c(OC)c1	-4.7%
COCCCNCCOCCOc1ccc(Cl)cc1C(C)(C)C	-6.8%
CC(=O)NC1C(=O)N=C(SCC(=O)Nc2ccc(C(F)(F)F)cc2Cl)NC1=O (centres undefined)	6.5%
O=C1c2ccccc2C(=O)N1c1ccc(Cl)cn1	-12.6%
N#Cc1ccc(CN2CCN(C(=O)c3ccc(S(=O)(=O)NCc4ccco4)cc3)CC2)cc1	-17.6%
CC(C)c1ccc(OC(=O)NCCO)cc1	1.0%
CCc1cc(C(=O)O)c(NC(=O)/C=C/c2ccc(OC)cc2)s1	4.7%
O=C(O)Cc1ccc(NC(=O)c2ccc3c(c2)C(=O)N(Cc2ccco2)C3=O)cc1	-18.5%
O=S(=O)(Nc1cccc2cccnc12)c1cccs1	2.9%
CC(=O)N1CCCc2cc(S(=O)(=O)NC(C(=O)NC3CCCCC3)C(C)C)ccc21 (centres undefined)	-17.0%
Cc1ccc(C(=O)N(CC(=O)NC2CCCCC2)c2ccccc2C)s1	-4.4%

# Sorted by the number under VDR inhibitor (high to low): some entries from above
mol,VDR inhibitor
O=S(=O)(Nc1cccc2cccnc12)c1cccs1,2.9%
Cc1ccc(C(=O)N(CC(=O)NC2CCCCC2)c2ccccc2C)s1,-4.4%
COCCCNCCOCCOc1ccc(Cl)cc1C(C)(C)C,-6.8%
N#Cc1ccc(CN2CCN(C(=O)c3ccc(S(=O)(=O)NCc4ccco4)cc3)CC2)cc1,-17.6%
O=C(O)Cc1ccc(NC(=O)c2ccc3c(c2)C(=O)N(Cc2ccco2)C3=O)cc1,-18.5%

# Remaining list, next part.
mol	VDR inhibitor
CCOc1ccc2[nH]c3c(N4CCN(C(=O)c5ccco5)CC4)ncnc3c2c1	1.7%
CCCCNc1c(-c2ccc(OC)c(SC(C)CC)c2)nc2ccc(C)cn12 (centres undefined)	-14.7%
CCCS(=O)(=O)N1CCN(C(=O)COc2ccc(OC)cc2)CC1	-5.9%
CC(C)CCNC(=O)c1cc(-c2ccncc2)nc2ccc(S(=O)(=O)N3CCOCC3)cc12	-4.6%
COCC(C)n1c(SCC(=O)NC(=O)NC2CCCC2)nc2ccccc2c1=O (centres undefined)	3.0%
CCN(C(=O)COC(=O)CCCc1c[nH]c2ccccc12)c1c(N)n(Cc2ccccc2)c(=O)[nH]c1=O	-8.4%
CN(CCOc1ccc(Cl)cc1)C(=O)c1cc(S(=O)(=O)N2CCOCC2)ccc1N1CCCC1	-5.0%
CN(CC(=O)N1CCN(C2CCCCC2)CC1)S(=O)(=O)c1cccc2nsnc12	10.0%
CCN1C[C@@H]2[C@@H]3C(=O)N(Cc4ccccc4)C(=O)[C@@H]3[C@](Cc3ccccc3)(C1=O)N2C(=O)c1ccc(C(F)(F)F)cc1	-5.6%
O=C(COC(=O)c1cc(C(F)(F)F)cc(C(F)(F)F)c1)NCc1ccc(Cl)cc1	-6.7%
CCCCNC(=S)NCc1ccc2[nH]c3c(c2c1)CCCC3	-13.3%
CC(=O)Nc1ccc(S(=O)(=O)N(C)CC(=O)OC(C)C(=O)NC2CCCCC2)cc1 (centres undefined)	-9.0%
C/C(=N/NC(=O)c1ccc2c(c1)OCCO2)c1ccc([N+](=O)[O-])cc1	1.7%
CCCCn1c(SCC(=O)NCc2ccc(OC)c(C(=O)O)c2)nc2cc(S(N)(=O)=O)ccc21	14.6%
COc1cccc(CNc2nc(-c3cccnc3)nc3ccccc23)c1	-14.5%
Cn1ccc2cc(S(=O)(=O)N3CCCN(C(=O)Nc4ccccc4Br)CC3)ccc21	-5.6%
CCc1ccc(N2C(=O)C3C4CCC(C4=C(C)C)C3C2=O)cc1 (centres undefined)	-8.6%
CC1Cc2ccccc2N1C(=O)c1cc2sccc2n1Cc1ccc(F)cc1 (centres undefined)	6.6%
CN(CC(=O)Nc1ccc(F)cc1)C(=O)CN1C(=O)NC2(CCCC2)C1=O	-3.3%

# Compound activity: PubChem BioAssay, National Center for Advancing Translational Sciences (NCATS)

# An excerpt; count on the stated rates, not on these rows.
